Assay outcomes (PubChem)
DUX4 txn inh = inhibitors of DUX4-driven ZSCAN4 reporter expression, primary screen, 293T cells, Gaussia and Italica luciferase; 293T-iDUX4 ZSCAN4-Gaussia luciferase reporter, 24 h; active compounds read low; activity change, negative = inhibition, % (concentration not given with the values); 37,000 compounds, 0.8% hits;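 active = -10% or lower and over 25 points stronger than a control reporter; inconclusive = -10% or lower with a smaller gap; inactive = above -10%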;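 also: 0% = median of neutral control wells and -100% = median of positive control wells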
DUX4 txn inh difference = further read-out of DUX4 txn inh, marked with its call; Gaussia minus Italica difference, %; measured here: selective DUX4 reporter inhibition;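 worked out from the two reporters; negative = selective loss of the DUX4 reporter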
DUX4 txn inh control = second read-out of DUX4 txn inh, no call of its own (marks repeat the call); activity change, negative = inhibition, %; measured here: Italica tet-on control reporter;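 0 = neutral control and -100 = positive control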
An asterisk follows results filed as active; ? = inconclusive; . = not tested or not shown. Not all compounds are listed, so the mix of outcomes need not match the whole.

Structure | DUX4 txn inh | DUX4 txn inh difference | DUX4 txn inh control
C/C=C/c1ccc([C@@H]2[C@@H](CO)N3CCCCN(C(=O)Nc4ccc(F)cc4)C[C@H]23)cc1 | -2 | -5 | 2.3
CC(C)C(=O)Nc1ccc2c(c1)C(=O)N(C)[C@@H]1CC[C@H](CC(=O)NCc3ccccc3F)O[C@@H]1CO2 | 5 | 1 | 3.9
COc1ccccc1-c1ccc([C@@H]2[C@@H](C#N)N(C(=O)C3CCCCC3)[C@@H]2CO)cc1 | -2 | 1 | -3.0
CO[C@H]1CN(C)C(=O)c2cc(NC(=O)C3CCCCC3)ccc2OC[C@H](C)N(C)C[C@@H]1C | 3 | 2 | 1.4
COc1cccc(C#Cc2ccc([C@@H]3[C@@H](C#N)N(C(=O)c4ccccn4)[C@@H]3CO)cc2)c1 | 0 | -2 | 1.6
CNC[C@H]1OCCCC[C@@H](C)Oc2ccc(NC(=O)C3CCCCC3)cc2C(=O)N([C@@H](C)CO)C[C@H]1C | -2 | -2 | -0.2
COc1ccc(NC(=O)N(C)C[C@@H]2Oc3ccc(NC(=O)C4CCCCC4)cc3CC(=O)N([C@@H](C)CO)C[C@H]2C)cc1 | 3 | -3 | 6.1
COc1cccc(-c2ccc3n(c2=O)C[C@@H]2N[C@H]3[C@H](C(=O)N3CCCCC3)[C@H]2CO)c1 | 6 | 6 | 0.2
COc1ccc2c3c([nH]c2c1)[C@H](CO)N(S(C)(=O)=O)CC31CN(C(=O)Cc2cccnc2)C1 | 17 | -8 | 25
CN(C)CC#Cc1ccc([C@H]2[C@H](CO)N3CCCCN(C(=O)Nc4cc(F)ccc4F)C[C@@H]23)cc1 | 8 | 6 | 1.8
CC(C)NC(=O)N1[C@H](CO)[C@@H]2c3ccccc3N(C(=O)c3ccccn3)C[C@@H]21 | -4 | -8 | 3.9
CCCC(=O)Nc1ccc2c(c1)C(=O)N(C)[C@@H]1CC[C@H](CC(=O)NCC(F)(F)F)O[C@H]1CO2 | 2 | 0 | 1.9
COc1ccc2c3c([nH]c2c1)[C@H](CO)N(C(=O)CN1CCOCC1)CC31CN(C(=O)NC(C)C)C1 | -2 | -5 | 3.4
COc1ccc(NC(=O)N2CC(=O)N3[C@H](C2)[C@@H](c2ccc(/C=C/c4ccccc4)cc2)[C@@H]3CO)cc1 | ? | . | .
O=C(Nc1ccc(Cl)cc1)N[C@@H]1CC[C@H](CCn2cc(-c3ccccc3F)nn2)O[C@H]1CO | -5 | -3 | -1.6
Cc1ccc(-c2ccc([C@H]3[C@@H](CO)N4C(=O)CN(C(=O)CN5CCOCC5)C[C@@H]34)cc2)cc1 | 3 | -6 | 9.3
C[C@H](CO)N1C[C@H](C)[C@H](CN(C)S(=O)(=O)c2ccc(C#N)cc2)OCc2ccccc2-c2c(n(C)c3ccccc23)C1=O | ? | . | .
C[C@@H]1CCCCO[C@@H](CN(C)S(=O)(=O)c2ccc(Cl)cc2)[C@H](C)CN([C@@H](C)CO)C(=O)c2cc(NS(=O)(=O)c3cn(C)cn3)ccc2O1 | 0 | -2 | 1.9
O=C(C[C@H]1CC[C@H]2[C@@H](COC[C@@H](O)CN2C(=O)Nc2ccccc2)O1)NC1Cc2ccccc2C1 | 11 | 1 | 9.4
COc1ccc2c3c(n(C)c2c1)[C@@H](CO)N(CC1CC1)CC31CCN(C(=O)c2cccnc2)CC1 | 10 | 2 | 8.1
CN1c2ccc(-c3ccccc3F)cc2[C@@H]2[C@@H](CCN2C(=O)NC2CCCC2)[C@@H]1CO | -7 | -3 | -3.7
CCC(=O)N1C[C@H](O)COC[C@H]2O[C@H](CC(=O)NCc3cc(F)cc(F)c3)CC[C@@H]21 | 8 | 1 | 7.6
COCC(=O)N1C[C@@H](C)[C@@H](OC)CN(C)C(=O)c2cc(NC(=O)Nc3ccccc3)ccc2OC[C@@H]1C | -3 | 1 | -4.0
C/C=C/c1ccccc1[C@H]1[C@@H](C#N)N(C(=O)CN2CCOCC2)[C@H]1CO | 12 | 6 | 6.4
C/C=C/c1ccc([C@H]2[C@@H](CO)N3CCCCN(S(=O)(=O)c4ccc(F)cc4)C[C@@H]23)cc1 | ? | . | .
CCNC(=O)C[C@@H]1CC[C@H]2[C@@H](COC[C@@H](O)CN2C(=O)Nc2c(C)noc2C)O1 | 6 | 4 | 2.3
C[C@@H]1CN([C@@H](C)CO)C(=O)CCCn2nncc2CO[C@H]1CN(C)Cc1ccc(Cl)c(Cl)c1 | ? | . | .
CC=Cc1ccc2n(c1=O)C[C@H]1[C@H](CO)[C@@H](C(=O)NCCc3ccccc3)N(CCC)[C@@H]21 (mixture of isomers) | -4 | 0 | -4.0
CC(C)C#Cc1ccc([C@@H]2[C@@H](CO)N3C(=O)CN(S(=O)(=O)c4ccccc4)C[C@@H]23)cc1 | -7 | 5 | -12
CCCC#Cc1ccc([C@H]2[C@H](C#N)N(S(C)(=O)=O)[C@H]2CO)cc1 | 3 | -2 | 5.5
O=C(C[C@@H]1C[C@H]2c3cc(NC(=O)c4ccc5c(c4)OCO5)ccc3O[C@H]2[C@H](CO)O1)NCC(F)(F)F | 2 | -5 | 7.1
CC(=O)N1CC2(C1)[C@H](c1ccc(-c3cccc(C#N)c3)cc1)[C@@H](CO)N2CCC(F)(F)F | 5 | 11 | -5.9
CC[C@@H]1C/C=C\C[C@H](c2ccc(OC)cc2OC)NC(=O)[C@H](C)CC(=O)N1 | 2 | 6 | -3.7
CO[C@@H]1CN(C)C(=O)c2ccc(NS(=O)(=O)c3ccc(C)cc3)cc2OC[C@@H](C)N(Cc2nccs2)C[C@H]1C | 2 | 0 | 2.2
C[C@@H]1CN([C@@H](C)CO)C(=O)c2ccccc2-c2ccccc2CO[C@H]1CN(C)Cc1cccc(C(=O)O)c1 | 2 | -7 | 9.2
CO[C@@H]1CN(C)C(=O)c2cc(C#N)ccc2OCC[C@@H]2CC[C@@H](OC)[C@@H](CN(C)C(=O)[C@H]1C)O2 | 2 | 0 | 2.4
Cc1noc(C)c1S(=O)(=O)N(C)C[C@@H]1OCCCC[C@@H](C)Oc2ccc(NC(=O)c3ccccc3)cc2C(=O)N([C@@H](C)CO)C[C@H]1C | ? | . | .
CO[C@H]1CN(C)C(=O)c2ccc(NC(=O)Nc3ccccc3Cl)cc2OC[C@H](C)NC[C@@H]1C | ? | . | .
C[C@H]1CN([C@@H](C)CO)C(=O)CCCn2cc(nn2)CO[C@H]1CN(C)C(=O)CCC(F)(F)F | 2 | 3 | -0.9
COc1ccc(S(=O)(=O)Nc2cccc3c2O[C@@H](CN(C)C(=O)Nc2cccc4ccccc24)[C@@H](C)CN([C@H](C)CO)C3=O)cc1 | -3 | -3 | -0.5
C[C@H](CO)N1C[C@H](C)[C@H](CN(C)CC2CCCCC2)Oc2ccc(NS(=O)(=O)c3cccs3)cc2CC1=O | -1 | -4 | 2.8
Cc1ccccc1S(=O)(=O)N1[C@H](C#N)[C@H](c2ccccc2)[C@@H]1CO | -2 | -1 | -1.0
CS(=O)(=O)Nc1ccc2c(c1)[C@@H]1C[C@@H](CC(=O)NCc3ccncc3)O[C@@H](CO)[C@@H]1O2 | 6 | 7 | -1.0
CO[C@@H]1CN(C)C(=O)c2cc(NC(=O)Nc3c(C)noc3C)ccc2OC[C@H](C)NC[C@@H]1C | 6 | 3 | 2.8
CC(C)CC#Cc1ccc2c(c1)O[C@H](CN(C)Cc1cncnc1)[C@H](C)CN([C@@H](C)CO)S2(=O)=O | -1 | -4 | 2.7
O=C(Cc1ccccn1)N1CC(=O)N2[C@H](C1)[C@H](c1ccc(-c3ccc(F)cc3)cc1)[C@@H]2CO | 13 | 11 | 1.2
C[C@H](O)C#Cc1ccc([C@H]2[C@H](CO)N3CCCCN(C(=O)c4ccc5c(c4)OCO5)C[C@@H]23)cc1 | 23 | 16 | 7.5
C[C@H]1CC=CC[C@@H](c2ccccc2)NC(=O)[C@H](Cc2ccccc2)N(C)C(=O)c2ccccc2O1 (mixture of isomers) | -2 | 1 | -3.4
CC(C)CC#Cc1cnc2c(c1)C(=O)N([C@H](C)CO)C[C@@H](C)[C@@H](CN(C)C(=O)c1cccnc1)O2 | -7 | -4 | -3.0
CC=Cc1ccc2n(c1=O)C[C@H]1[C@H](CO)[C@@H](C(=O)NCC3CC3)[C@@H]2N1Cc1ccccc1 (mixture of isomers) | -4 | -2 | -2.6

Additional structures follow:
Structure | DUX4 txn inh | DUX4 txn inh difference | DUX4 txn inh control
COc1cccc(NC(=O)Nc2ccc3c(c2)C(=O)N(C)C[C@H](OC)[C@@H](C)CN[C@@H](C)CO3)c1 | -3 | 0 | -3.6
Cc1ccc(S(=O)(=O)N2CC[C@@H]3[C@H]2c2cc(-c4cccc(C#N)c4)ccc2N(C)[C@H]3CO)cc1 | ? | . | .
Cc1ccc(S(=O)(=O)Nc2ccc3c(c2)CC(=O)N([C@@H](C)CO)C[C@@H](C)[C@H](CN(C)C(=O)Nc2ccc4c(c2)OCO4)O3)cc1 | -1 | 0 | -0.4
CN1CCCCN2[C@H](CO)[C@@H](c3ccc(Br)cc3)[C@@H]2C1 | 17 | 22 | -5.0
Cc1noc(C)c1NC(=O)N(C)C[C@H]1OCc2ccccc2-c2ccccc2C(=O)N([C@@H](C)CO)C[C@@H]1C | 25 | 20 | 4.3
CC=Cc1ccc2n(c1=O)C[C@@H]1[C@@H](CO)[C@H](C(=O)NCC3CCCCC3)N(C(=O)CC)[C@H]21 (mixture of isomers) | -6 | -3 | -3.2
O=C1N[C@@H](Cc2ccccc2)COCc2cn(nn2)CC[C@@H]1Cc1ccc(-c2ccccc2)cc1 | -1 | -1 | 1.0
Cc1ccc(S(=O)(=O)N(C)C[C@@H]2Oc3cc(C#CC4CCCC4)ccc3S(=O)(=O)N([C@H](C)CO)C[C@@H]2C)cc1 | 2 | 1 | 0.7
CS(=O)(=O)N(CC1CCC1)C[C@H]1N[C@@H](CO)[C@H]1c1ccccc1 | 1 | -4 | 4.9
OC[C@@H]1[C@@H](c2ccccc2)C2(CN(Cc3nccs3)C2)N1Cc1cccnc1 | -4 | -4 | -0.7
CCCC(=O)N1CCC2(CC1)CN(Cc1cccnc1)[C@H](CO)c1[nH]c3cc(OC)ccc3c12 | 9 | 5 | 4.3
CC(C)CC#Cc1ccc([C@@H]2[C@@H](CO)N3C(=O)CN(S(=O)(=O)c4ccccc4)C[C@@H]23)cc1 | 5 | -10 | 16
C[C@@H]1CN([C@H](C)CO)C(=O)c2ccccc2-c2ccccc2CO[C@H]1CN(C)C(=O)CCN(C)C | 11 | 2 | 9.1
COc1ccc(NC(=O)Nc2ccc3c(c2)C(=O)N([C@@H](C)CO)C[C@@H](C)[C@@H](CN(C)S(=O)(=O)c2c(C)noc2C)OCCCC[C@@H](C)O3)cc1 | 0 | -4 | 3.2
O=C(NCc1ccncn1)[C@H]1[C@H](CO)[C@H]2Cn3c(ccc(-c4cccc(F)c4)c3=O)[C@H]2N1CC1CC1 | 6 | 3 | 2.5
O=C(C[C@H]1CC[C@@H]2[C@H](COC[C@H](O)CN2C(=O)Nc2cc(Cl)cc(Cl)c2)O1)N1CCCCC1 | 0 | -6 | 5.5
CCC(=O)N1[C@@H]2CN(C(=O)Nc3ccccc3Cl)c3ccccc3[C@@H]2[C@@H]1CO | 2 | 6 | -3.3
O=C(C[C@H]1CC[C@H]2[C@@H](COC[C@@H](O)CN2Cc2cc(F)cc(F)c2)O1)NC1CCCC1 | ? | . | .
C/C=C/c1ccc2c(c1)O[C@H](CN(C)C(=O)c1ccccn1)[C@H](C)CN([C@@H](C)CO)S2(=O)=O | 1 | -1 | 2.1
O=C(C[C@H]1C=C[C@H](NC(=O)c2cnccn2)[C@H](CO)O1)NCc1ccccc1F | 1 | -3 | 3.9
O=C(C[C@@H]1CC[C@@H]2[C@H](COC[C@H](O)CN2CCC(F)(F)F)O1)NCc1ccc(Oc2ccccc2)cc1 | ? | . | .
CNC(=O)C[C@@H]1CC[C@H]2[C@@H](COc3ccc(NC(=O)c4cnccn4)cc3C(=O)N2C)O1 | -5 | -5 | -0.5
C[C@H](CO)N1C[C@H](C)[C@H](CN(C)Cc2ccc(Oc3ccccc3)cc2)Oc2ccc(NC(=O)Cn3cnnn3)cc2CC1=O | 1 | -5 | 6.0
Cc1nn(C)cc1NC(=O)C[C@H]1CC[C@H]2[C@H](COc3ccc(NC(=O)c4cccc(F)c4)cc3C(=O)N2C)O1 | 1 | -5 | 6.4

Filtered by structure: those above with two or more sulfur atoms
Structure | DUX4 txn inh | DUX4 txn inh difference | DUX4 txn inh control
C[C@@H]1CCCCO[C@@H](CN(C)S(=O)(=O)c2ccc(Cl)cc2)[C@H](C)CN([C@@H](C)CO)C(=O)c2cc(NS(=O)(=O)c3cn(C)cn3)ccc2O1 | 0 | -2 | 1.9
CO[C@@H]1CN(C)C(=O)c2ccc(NS(=O)(=O)c3ccc(C)cc3)cc2OC[C@@H](C)N(Cc2nccs2)C[C@H]1C | 2 | 0 | 2.2
C[C@H](CO)N1C[C@H](C)[C@H](CN(C)CC2CCCCC2)Oc2ccc(NS(=O)(=O)c3cccs3)cc2CC1=O | -1 | -4 | 2.8
Cc1ccc(S(=O)(=O)N(C)C[C@@H]2Oc3cc(C#CC4CCCC4)ccc3S(=O)(=O)N([C@H](C)CO)C[C@@H]2C)cc1 | 2 | 1 | 0.7

2 records drawn at random from the list so far:
Structure | DUX4 txn inh | DUX4 txn inh difference | DUX4 txn inh control
Cc1nn(C)cc1NC(=O)C[C@H]1CC[C@H]2[C@H](COc3ccc(NC(=O)c4cccc(F)c4)cc3C(=O)N2C)O1 | 1 | -5 | 6.4
C[C@H](CO)N1C[C@H](C)[C@H](CN(C)Cc2ccc(Oc3ccccc3)cc2)Oc2ccc(NC(=O)Cn3cnnn3)cc2CC1=O | 1 | -5 | 6.0
